Bioassay records (PubChem BioAssay)
NPYLR7 ag – mosquito NPYLR7 agonism; HEK293T NPYLR7/Galpha15, GCaMP6s calcium fluorescence; hit rate 0.15% among 270,000; AID 1259423; activation, % at 10 µM; in the data active means activation above about 40%;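 further: 0% = vehicle and 100% = reference agonist at the receptor; some compounds past the cut are filed as inactive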
NPYLR7 ag max-min – also measured in NPYLR7 ag; calls as there; activation, %; measured here: Max-Min RFU normalised activation; some inactives read as strong as hits;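 span of the calcium signal over five minutes; 0% = vehicle and 100% = native peptide agonist; compound fluorescence can raise it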
An asterisk follows results filed as active; & = joins results of further samples.

Structure,NPYLR7 ag,NPYLR7 ag max-min
CCN1CCCC1CNS(=O)(=O)c1ccc(F)c2ncccc12 (stereo unspecified),-1,-4
Cc1ccc(NCC(=O)N2CCN(c3ccccc3)CC2)cc1F,-6,-6
CN(C)C(=O)CNc1ccccc1Oc1cccc(F)c1,5,1
O=S(=O)(c1cccc(Cl)c1)N1CCN(c2ccc3nnc(-c4ccco4)n3n2)CC1,4,8
c1csc(-c2nc(N3CCOCC3)c3c4c(sc3n2)CCC4)c1,7,12
COc1ccc(OC)c(NC(=O)CCC(=O)N2CCc3ccccc3C2)c1,5,2
CCCCC1CCC(C(=O)NCCCn2nc(-c3ccncc3)ccc2=O)CC1 (stereo unspecified),9,5
O=C(CC1(O)C(=O)Nc2ccc(Br)cc21)c1ccc(F)cc1 (stereo unspecified),6,3
O=C(Nc1ccc(OCC(=O)N2CCCCCC2)cc1)c1ccco1,5,3
COCCn1c(C)cn2c3c(=O)n(Cc4ccccc4F)c(=O)n(C)c3nc12,25,20
Cc1ccc(S(=O)(=O)NCCn2nc(-c3cccnc3)ccc2=O)s1,8,-2
CC(=O)Nc1cccc(C(=O)N2CCOC(c3ccccc3)C2)c1 (stereo unspecified),-3,1
CCOc1ccc(S(=O)(=O)Nc2ccc(Nc3ccc(-n4nc(C)cc4C)nn3)cc2)cc1,-3,-10
CCNC(=S)N(CCN(C)C)Cc1c(-c2ccccc2)noc1N(CC)CC,4,2
O=C1C(=O)N(CCN2CCOCC2)C(c2ccc([N+](=O)[O-])cc2)C1=C(O)c1ccccc1 (stereo unspecified),4,3
c1ccc(N=c2scc(-c3ccccc3)n2CC2CCCO2)cc1 (stereo unspecified),-1,-2
CCOc1ccc(CN2CCNC(=O)C2CC(=O)NCCOC(C)C)cc1 (stereo unspecified),6,8
CCOC(=O)C1CCCN(C(=O)c2ccc(CSc3nc(C)c(C)c(N4CCN(CC)CC4)n3)cc2)C1 (stereo unspecified),-3,2
COc1ccc(CC(=O)N(CCn2cccn2)c2nc3ccccc3s2)cc1,1,0
CN1CCN(NC(=O)c2ccc(Br)c(S(=O)(=O)N3CCOCC3)c2)CC1,-6,-10
COc1ccc(CC(=O)Nn2cnc3c(cnn3C(C)(C)C)c2=O)cc1,8,3
COc1c(F)c(F)c(OC)c(F)c1F,5,6
Cc1ccc(-n2nc(C(=O)NCC3CCCO3)c(=O)n(Cc3cccnc3)c2=O)cc1 (stereo unspecified),18,22
CC(C)c1ccc(N2CCN(CC(=O)N3CCC(O)CC3)C2=O)cc1,3,-1
Cc1nnc(SCC(=O)NC2CCCCCC2)n1C1CCCCC1,-13,-12
CCN(CC)CCN(C(=O)c1ccco1)c1nc2c(OC)ccc(Cl)c2s1,7,2
CCc1cc(N2CCN(C/C=C/c3ccccc3)CC2)nc(SCc2ccc(C(=O)N3CCN(C)CC3)o2)n1,-9,-9
OC[C@H]1O[C@H](O[C@H]2[C@H](O)[C@@H](O)[C@H](O)O[C@@H]2CO)[C@H](O)[C@@H](O)[C@@H]1O,-10,7
Cc1ccc(Cl)cc1N1CCC(CNC2=NCCCN2)C1 (stereo unspecified),4,4
O=C(CNc1ccc(I)cc1)N1c2ccccc2Sc2ccccc21,-7,-10
O=C(NCCS(=O)(=O)N1CCN(c2ccc(F)cc2)CC1)C1c2ccccc2Oc2ccccc21,3,0
COc1ccc(Nc2nnc(-c3cc4c(ccc5ccccc54)oc3=O)s2)cc1,-3,-10
CCOC(=O)[C@@H]1[C@@H](O)C(=O)NC12CCN(C(=O)CCc1ccccc1)CC2,12,13
COc1cccc(COc2coc(CN3CCCN(C(=O)c4ccc(NC(C)=O)cc4)CC3)cc2=O)c1,7,11
CCOc1ccc2nc(SCC(=O)n3c4ccccc4c4ccccc43)sc2c1,-4,-11
CCN1C(=O)/C(=C2/SC(c3ccccc3)=C3N=CC(C)=CN32)SC1=S,-3,-4
CCc1nc2ccc(C(=O)N(C)CCCN(C)C)cn2c1N(C)C(=O)Cc1ccccc1,1,23
CC(C)n1c(=O)[nH]c2sc3c(c2c1=O)CCN(C(=O)Cc1c(F)cccc1F)C3,6,0
CCSc1nc(NC(C)C)c2cnn(CCNC(=O)c3ccc(F)c(F)c3)c2n1,3,2
O=C(c1cnc2ccccc2c1)N1CCOC(COc2cccc(C(F)(F)F)c2)C1 (stereo unspecified),2,4
CCC(C(=O)NCc1cccc(C(F)(F)F)c1)n1c(=O)n(-c2cccc(OC)c2)c(=O)c2ccccc21 (stereo unspecified),18,20
Cc1oc(-c2ccoc2)nc1CN1CCCCC1CCc1ccccc1 (stereo unspecified),4,-3
O=P1(NCc2ccco2)C=C(c2ccccc2)OC(c2ccccc2)=C1,10,9
COc1ccc2nc(C)cc(Oc3ccc(Br)cc3)c2c1,-8,-14
O=c1ccc(-c2ccccc2)nn1Cc1ccccn1,9,2
Cc1nnsc1C(=O)Nc1nc2c(s1)C[C@]1(C)CC[C@@H]3[C@H](OC(=O)[C@H]3C)[C@H]1[C@@H]2C,-11,-15
CC1(C2CCN(C(=O)C#Cc3ccccc3)CC2)NC(=O)N(Cc2ccsc2)C1=O (stereo unspecified),23,7
COCCN(CC(=O)N(CCc1c[nH]c2ccccc12)Cc1ccc(C(F)(F)F)cc1)S(=O)(=O)c1cccc(C(F)(F)F)c1,3,18
COc1ccc(CCC(=O)N2CCNCC2C(=O)N2CCOCC2)cc1 (stereo unspecified),-3,-7
Cc1noc(C)c1C1CCCN1S(=O)(=O)NCc1ccccc1 (stereo unspecified),8,7
COc1ccc(C=C2SC(=S)N(CCCN3CCOCC3)C2=O)cc1,5,2
C=c1ccccc1=C1NN=C(SCc2nc3c(cnn3C)c(=O)[nH]2)O1,-6,-7
COc1cccc(NC(=O)N(CC(C)C)CC(O)c2ccc(F)cc2)c1 (stereo unspecified),2,-2
Oc1ccc(C23CCCC2C2(CCCC2)c2ccc(O)cc2O3)c(O)c1 (stereo unspecified),-5,-8
CC(=O)N1N=C(c2ccccc2)OC1C(=O)NCCN1C(=O)CSC1=O (stereo unspecified),3,19
CCCc1nn(C)c(C(=O)NC(C)c2ccccc2)c1Cl (stereo unspecified),10,8
Cc1c(C(C)NC(=O)CCNC(=O)C2CC2C)cnn1-c1ccc(F)cc1 (stereo unspecified),2,-14
O=C(Cn1ncn2cccc2c1=O)N1CCCCC1,3,0
O=C(N[C@H]1CCCCNC1=O)c1ccc(N2CCC(NCc3cccc(Cl)c3)CC2)cc1,5,-1
C=CCOCC(O)CN(C)CC1CC(c2ccc(F)cc2)=NO1 (stereo unspecified),-3,-3

Structural class: those above with bromine (3)
Structure,NPYLR7 ag,NPYLR7 ag max-min
O=C(CC1(O)C(=O)Nc2ccc(Br)cc21)c1ccc(F)cc1 (stereo unspecified),6,3
CN1CCN(NC(=O)c2ccc(Br)c(S(=O)(=O)N3CCOCC3)c2)CC1,-6,-10
COc1ccc2nc(C)cc(Oc3ccc(Br)cc3)c2c1,-8,-14

(next part)
Structure,NPYLR7 ag,NPYLR7 ag max-min
CC(=O)NCCc1nc2ccccc2n1CCC1CCCCC1,19,30
CCOC(=O)c1c(NC(=O)CSc2nnc(C)s2)sc2c1CCC(C)C2 (stereo unspecified),0,-4
CS(=O)(=O)c1ccc(S(=O)(=O)NC(c2ccc3c(c2)OCCO3)C2CC2)cc1 (stereo unspecified),3,1
O=C(OC1CCSC1)C1(c2ccccc2F)CC1 (stereo unspecified),-1,-4
O=C(NCc1ccco1)N1CCc2onc(-c3ccc(C(F)(F)F)cc3)c2C1,11,7
C=CCn1c(N2CCN(Cc3ccc(F)cc3)CC2)nc2c1c(=O)[nH]c(=O)n2C,-10,-8
CC(=O)NCC1CCN(Cc2cnc(-c3cccc(C)c3)nc2)C1 (stereo unspecified),0,0
CN(C)C(=O)c1cc2c(=O)n3ccccc3nc2n1C,2&0,1&-3
CCCn1ncc(C(=O)NCCC2CN(C)CCO2)c1C (stereo unspecified),4,1
Cc1cc(C)c(-c2c(O)c3cccc4c3n(c2=O)CCC4)c(C)c1,-7,-9
O=C1C2C3C=CC(C3)C2C(=O)N1c1ccccc1 (stereo unspecified),-6,-9
Clc1nc(Nc2cccc3ccccc23)nc(N2CCOCC2)n1,1,-11
O=C(CCc1ccc(-c2ccc(Cl)cc2)[nH]1)N1CCCC(O)(CO)CC1 (stereo unspecified),14,6
O=C(Nc1ccc(F)c(Cl)c1)N1CCSC1c1cccc(Oc2ccccc2)c1 (stereo unspecified),8,14
O=C(Nc1cccnc1N1CCN(C(=O)c2sccc2Cl)CC1)c1ccc2c(c1)OCO2,0,-9
CC(C)NC(=O)CC(c1cccc(C(F)(F)F)c1)c1c[nH]c2ccccc12 (stereo unspecified),37,41
Cc1ccc2c(-c3cc4c(n(CC5CC5)c3=O)CCN(C(=O)c3cc5ncccn5n3)C4)cccc2n1,11,-1
O=C(c1ccc2c(c1)OCCO2)N(Cc1ccccn1)c1nc2ccc(F)cc2s1,0,-8
O=c1c2cc3c(=O)n(CC4CCCO4)ccc3nc2ccn1CCN1CCOCC1 (stereo unspecified),-1,-3
Cn1cc(-c2ccc(N3CC=C(c4ccc(O)cc4)CC3)nn2)cn1,-2,-3
O=C1Nc2cc(Cl)ccc2C1=Cc1ccco1,12,16
COc1ccc(CN(C)Cc2nc(-c3cc4c(cc3Cl)OCO4)oc2C)c2cccnc12,6,10
Cc1ccccc1-c1nc(Cc2ccccc2)no1,7,6
Cn1ccnc1CNC(=O)c1cc(Cl)cc(Br)c1O,7,9
OCc1ccn(-c2c(F)cccc2F)n1,0,-1
CC(=O)NCCc1nc2ccccc2n1CCCOc1ccccc1,-1,1
CC(C)CN(Cc1cnn(C)c1)C(=O)c1cc(=O)n(C)c(=O)n1C,1,-2
CC(=O)N(CCCN(C)C)c1nc2cc(C)cc(C)c2s1,2,0
CC1C(=O)N(c2ccc(Cl)cc2)CCN1S(=O)(=O)c1ccccc1 (stereo unspecified),-3,2
CC1(C)CN(C(=O)c2ccccc2F)C2(S1)C(=O)N(Cc1ccccc1)c1ccc(Cl)cc12 (stereo unspecified),5,10

The closing six compounds of the part before are carried over, then new ones follow:
Structure,NPYLR7 ag,NPYLR7 ag max-min
OCc1ccn(-c2c(F)cccc2F)n1,0,-1
CC(=O)NCCc1nc2ccccc2n1CCCOc1ccccc1,-1,1
CC(C)CN(Cc1cnn(C)c1)C(=O)c1cc(=O)n(C)c(=O)n1C,1,-2
CC(=O)N(CCCN(C)C)c1nc2cc(C)cc(C)c2s1,2,0
CC1C(=O)N(c2ccc(Cl)cc2)CCN1S(=O)(=O)c1ccccc1 (stereo unspecified),-3,2
CC1(C)CN(C(=O)c2ccccc2F)C2(S1)C(=O)N(Cc1ccccc1)c1ccc(Cl)cc12 (stereo unspecified),5,10
CC(NC(=O)c1cc(CN2CCOCC2)on1)c1ccccc1-n1cccn1 (stereo unspecified),33,20
CN(C)CCNc1ncnc2[nH]ncc12,12,8
Cc1[nH]cnc1C(=O)N1CCC(n2nccc2NC(=O)C2CC2)CC1,15,9
COc1ccc(-c2cnc(N)c(C)c2)cn1,5,1
CC(C)N(CCNC1CCS(=O)(=O)C1)C(C)C (stereo unspecified),3,1
Cc1ccc(NC(=O)CN2CC(=O)Nc3ccccc32)c(Cl)c1,7,2
CC(NC(=O)CN(CC(=O)N(C)C)CC(F)(F)F)c1ccc(F)cc1 (stereo unspecified),-2,-6
Cc1oc(-c2cc(F)cc(F)c2)nc1CN1CCN(C(=O)c2ccco2)CC1,13,5
Cc1cc(C)n(CCNC(=O)c2cccc3c2NCCC3)c(=O)n1,8,7
COc1ccc(C(=O)N2CCN(c3ccc(F)c(Cl)c3)C(=O)C2C)cc1 (stereo unspecified),0,7
COc1cccc(-c2nnc(SCc3ccc(C(=O)N4CCN(c5ccccc5F)CC4)cc3)n2-c2ccc(F)cc2)c1,15,18
CC(C)Cc1nc(N2CCCN(C(=O)c3ccc4c(c3)OCO4)CC2)c2c(-c3cccc(C(F)(F)F)c3)noc2n1,17,12
CCOC(=O)c1c(NC(=O)c2ccc([N+](=O)[O-])o2)c(-c2ccc3c(c2)OCO3)cn1C,18,5
COc1ccc(NC2CC(=O)N(C3CC3)C2=O)cc1 (stereo unspecified),14,5
O=c1[nH]c2ccc(S(=O)(=O)Nc3cnc4ccccc4c3)cc2s1,2,1
CN(Cc1cnn(C)c1)C(=O)c1ccc(-n2cccc2)cc1O,-1,-3
Cc1c(C(=O)O)sc2ncnc(NCC(c3ccccc3Cl)N(C)C)c12 (stereo unspecified),3,0
Cc1ccc(C(=O)NCC(=O)N2CC(Oc3ccccc3)C2)s1,-15&0,-19&1
Cc1ccc(C2(O)CCN(Cc3ccc(Sc4nncn4C)o3)CC2)nc1,24,15
CCOc1cc2c(cc1OCC)CN(C(=O)c1cncn1-c1ccc(-c3ccc(F)c(F)c3)cc1)CC2,3,-1
CC(C)NC(=O)c1cc2c(s1)CS(=O)(=O)C2,5,4
CCCc1cc(NS(=O)(=O)c2ccc(OC)c(C)c2)n[nH]1,1,7
CN(C(=O)c1nn(-c2ccccc2F)c(=O)n(Cc2cccc(C(F)(F)F)c2)c1=O)C1CCCCC1,9,7
CC(CCc1ccccc1)NC(=O)C(C)Nc1ccc2c(c1)OCO2 (stereo unspecified),6,3

These rows are one share of the data; count on the stated rates, not on these rows.
